Source: PubChem BioAssay (Johns Hopkins Ion Channel Center)
KCNQ2 pot: potentiators of rat KCNQ2 potassium channel; Potassium voltage-gated channel subfamily KQT member 2 (Rattus norvegicus), O88943; CHO-K1 KCNQ2, FluxOR thallium flux fluorescence; hits give high values; B-score at 10 µM; hit rate 0.54% among 310,000;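 active = fluorescence ratio B-score at least 3 SD of library B-scores, with initial fluorescence B-score within 3 SD, cut at about 5.3 in these data; same plate scores as AID 2156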;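 note: B-score of peak minus minimum over baseline fluorescence ratio after K+ and Tl+ stimulus; positive B-score means potentiation of KCNQ2 with more thallium influx and brighter signal; only the inactives scoring about 0 or higher are listed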
Target sequence (O88943 whole entry, looked up): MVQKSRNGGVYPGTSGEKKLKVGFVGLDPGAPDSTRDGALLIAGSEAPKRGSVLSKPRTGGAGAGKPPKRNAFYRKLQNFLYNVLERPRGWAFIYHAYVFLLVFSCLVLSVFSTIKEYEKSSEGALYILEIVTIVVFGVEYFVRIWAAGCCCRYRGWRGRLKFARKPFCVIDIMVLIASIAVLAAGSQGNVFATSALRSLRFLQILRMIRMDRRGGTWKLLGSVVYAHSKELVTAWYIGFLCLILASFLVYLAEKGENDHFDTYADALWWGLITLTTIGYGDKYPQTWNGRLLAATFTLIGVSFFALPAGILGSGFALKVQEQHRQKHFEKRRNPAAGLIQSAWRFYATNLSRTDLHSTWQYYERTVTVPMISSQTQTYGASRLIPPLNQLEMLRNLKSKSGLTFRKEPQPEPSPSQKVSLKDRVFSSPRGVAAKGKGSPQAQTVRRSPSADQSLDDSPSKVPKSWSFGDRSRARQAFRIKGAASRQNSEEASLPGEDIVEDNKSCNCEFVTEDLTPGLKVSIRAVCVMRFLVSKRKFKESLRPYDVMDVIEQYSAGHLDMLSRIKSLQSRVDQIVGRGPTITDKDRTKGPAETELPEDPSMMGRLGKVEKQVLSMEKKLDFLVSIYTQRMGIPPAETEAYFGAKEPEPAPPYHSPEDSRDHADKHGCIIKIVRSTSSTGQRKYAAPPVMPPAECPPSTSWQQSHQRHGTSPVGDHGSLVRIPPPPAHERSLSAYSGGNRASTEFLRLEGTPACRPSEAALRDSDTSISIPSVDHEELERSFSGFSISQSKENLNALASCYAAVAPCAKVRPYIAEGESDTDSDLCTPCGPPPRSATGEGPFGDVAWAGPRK
KCNQ2 pot baseline: further read-out of KCNQ2 pot, marked with its call; B-score; compound at 10 µM; measured here: initial fluorescence intensity artifact check;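 brightness before thallium and not channel activity; 0 = typical well and far values either way flag optical interference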
Numbers without * were called inactive.

Results for O=C(/C=C\c1ccc2c(c1)OCO2)NC1(C(=O)Nc2ccc3c(c2)OCCO3)CCCCC1 ?
KCNQ2 pot: 0.33; KCNQ2 pot baseline: -0.95

What do the screens show for `Cc1cccc(OCCC(=O)Nc2ccc(C)c(S(=O)(=O)N3CCCCC3)c2)c1`?
KCNQ2 pot: 0.25; KCNQ2 pot baseline: -1.21

Results for CCN(CC)C(=O)C(=O)c1cccn1-c1cccc(Cl)c1C#N ?
KCNQ2 pot: 0.56; KCNQ2 pot baseline: -2.46

How did CCC1CCCN1Cn1cnc2c([nH]c3ccc(OC)cc32)c1=O (centres undefined) do in these assays?
KCNQ2 pot: 1.66; KCNQ2 pot baseline: -0.84

Results for Cc1ccc(CN2C(=O)N/C(=C\c3ccc(N4CCOCC4)cc3)C2=O)cc1 ?
KCNQ2 pot: 0.95; KCNQ2 pot baseline: -0.27

What do the screens show for `CN(C)C1(CNC(=O)C2CCN(S(=O)(=O)c3cccc(C(F)(F)F)c3)CC2)CCCCC1`?
KCNQ2 pot: 0.26; KCNQ2 pot baseline: -0.22

What do the screens show for `CCOC(=O)c1ccc(NC(=O)Nc2ccccn2)cc1`?
KCNQ2 pot: 0.5; KCNQ2 pot baseline: 0.15

How did CC1CCc2nc(NC(=O)CN3CCOCC3)sc2C1 (centres undefined) do in these assays?
KCNQ2 pot: 0.01; KCNQ2 pot baseline: 0.54

How did O=C(/C=C/c1ccccc1Cl)NC1CCCCC1 do in these assays?
KCNQ2 pot: 0.92; KCNQ2 pot baseline: 0.01

What do the screens show for `COc1ccccc1CNC(=O)[C@H](C)NC(=O)C1CCN(C(=O)[C@@H](N)CC(C)C)CC1`?
KCNQ2 pot: 0.04; KCNQ2 pot baseline: -0.52

What do the screens show for `Cc1c(NC(=O)c2cc(-c3ccco3)on2)c(=O)n(-c2ccccc2)n1C`?
KCNQ2 pot: 0.03; KCNQ2 pot baseline: -0.29

How did COc1cccc(CCNC(=O)c2ccc(C#N)cc2)c1 do in these assays?
KCNQ2 pot: 0.12; KCNQ2 pot baseline: 1.4

Two records picked at random from those above, as already listed:
How did CC1CCc2nc(NC(=O)CN3CCOCC3)sc2C1 (centres undefined) do in these assays?
KCNQ2 pot: 0.01; KCNQ2 pot baseline: 0.54

What do the screens show for `CCOC(=O)c1ccc(NC(=O)Nc2ccccn2)cc1`?
KCNQ2 pot: 0.5; KCNQ2 pot baseline: 0.15

(listing goes on)
Results for Cc1ccc2nc(N(CCN(C)C)C(=O)/C=C/c3cccs3)sc2c1 ?
KCNQ2 pot: 0.05; KCNQ2 pot baseline: 0.52

Results for Cc1cc(NC(=O)C(C)SCC(=O)Nc2ccc(Br)cc2Br)no1 (centres undefined) ?
KCNQ2 pot: 1.48; KCNQ2 pot baseline: -0.04

What do the screens show for `Cn1cnc2c1c(=O)n(Cc1cccc(Cl)c1)c(=O)n2C`?
KCNQ2 pot: 1.17; KCNQ2 pot baseline: 0.05

How did Cc1noc(C)c1C(=O)OC(C)C(=O)Nc1ccc(S(=O)(=O)NC(C)C)cc1 (centres undefined) do in these assays?
KCNQ2 pot: 1.4; KCNQ2 pot baseline: -0.24

What do the screens show for `COc1ccccc1/C=N/NC(=O)CNC(=O)c1ccc(S(=O)(=O)N(C)C)cc1`?
KCNQ2 pot: 0.67; KCNQ2 pot baseline: 0.08

How did COc1ccc(C(=O)NCC(=O)N/N=C/C=C/c2ccccc2)cc1OC do in these assays?
KCNQ2 pot: 1.8; KCNQ2 pot baseline: 0.18

How did N#Cc1ccccc1Cn1c(=O)n(CCC(=O)NCc2ccco2)c(=O)c2ccccc21 do in these assays?
KCNQ2 pot: 0.02; KCNQ2 pot baseline: -0.26

Results for O=S(=O)(Nc1ncccn1)c1cc(Cl)ccc1Cl ?
KCNQ2 pot: 1.71; KCNQ2 pot baseline: -1.35

Results for O=C(Cn1ccc2ccccc2c1=O)NCCC(=O)NC1CCN(Cc2ccccc2)CC1 ?
KCNQ2 pot: 1.27; KCNQ2 pot baseline: -2.21

What do the screens show for `C/C(=N\NC(N)=O)c1ccc(Cl)cc1`?
KCNQ2 pot: 0.54; KCNQ2 pot baseline: 0.04

How did CCOC(=O)N1CCN(C(=O)/C=C/c2c(C)nn(-c3ccc(F)cc3)c2Cl)CC1 do in these assays?
KCNQ2 pot: 0.44; KCNQ2 pot baseline: 2.04

What do the screens show for `COc1ccnc(Oc2ccc(F)cc2)c1C(=O)N/C=N/OCc1ccc(Cl)cc1Cl`?
KCNQ2 pot: 0.54; KCNQ2 pot baseline: -0.03

Results for COc1ccccc1OCCC(=O)OCC(=O)NCc1ccc(Cl)cc1 ?
KCNQ2 pot: 0.01; KCNQ2 pot baseline: -0.02

Results for CCCn1c(SCC(=O)c2cc(C)n(-c3ccc4c(c3)OCO4)c2C)n[nH]c1=O ?
KCNQ2 pot: 0.72; KCNQ2 pot baseline: -1.34

How did CCC(C)NC(=O)COc1ccc(OCc2ccccc2)cc1 (centres undefined) do in these assays?
KCNQ2 pot: 0.14; KCNQ2 pot baseline: 0.13

How did CCOc1cc(-c2nc(-c3cc(OC)c(OC)c(OC)c3)no2)cc(OCC)c1OCC do in these assays?
KCNQ2 pot: 0.87; KCNQ2 pot baseline: -0.19

How did Cn1c(CCNC(=O)c2ccccc2F)nnc1SCC(=O)Nc1nncs1 do in these assays?
KCNQ2 pot: 0.05; KCNQ2 pot baseline: 1.19

What do the screens show for `CCCOc1cccc(C(=O)Nc2cc(NC(=O)c3ccco3)ccc2OC)c1`?
KCNQ2 pot: 0.87; KCNQ2 pot baseline: -1.14

Results for COc1cc(C)ccc1OCCOCCN(C)Cc1ccccc1 ?
KCNQ2 pot: 0.85; KCNQ2 pot baseline: 2.26

What do the screens show for `COc1ccc(CN2CCNC(=O)C2CC(=O)NC2CCCCCC2)c(C)c1C` (centres undefined)?
KCNQ2 pot: 0.08; KCNQ2 pot baseline: -0.62

What do the screens show for `Cc1noc(C)c1CNCc1ccccc1`?
KCNQ2 pot: 0.89; KCNQ2 pot baseline: 0.42

How did CCCC(=O)Oc1ccc2c(C)cc(=O)oc2c1 do in these assays?
KCNQ2 pot: 1.76; KCNQ2 pot baseline: -1.82

What do the screens show for `C=C(C)CSc1nc2sc3c(c2c(=O)n1C1CCCCC1)CCN(C)C3`?
KCNQ2 pot: 0.91; KCNQ2 pot baseline: 0.1

What do the screens show for `CCOC(=O)c1sc(NC(=O)c2sc(C)nc2C)nc1C`?
KCNQ2 pot: 1.79; KCNQ2 pot baseline: 0.64

How did O=C(CCCCCCCCC(=O)N/N=C/c1ccco1)N/N=C/c1ccco1 do in these assays?
KCNQ2 pot: 0.39; KCNQ2 pot baseline: 1.33

Results for CCN(Cc1nc2ccccc2c(=O)[nH]1)Cc1nc2cc(OC)c(OC)cc2c(=O)[nH]1 ?
KCNQ2 pot: 0.9; KCNQ2 pot baseline: 0.51

Results for CCOc1ccc(/C=C/C(=O)Nc2ccc(N3CCOCC3)cc2)cc1 ?
KCNQ2 pot: 0.16; KCNQ2 pot baseline: -0.22

Results for Cc1nnc(NCc2n[nH]c(=O)c3ccccc23)c2ccccc12 ?
KCNQ2 pot: 1.54; KCNQ2 pot baseline: -0.82

What do the screens show for `O=C(O)CCCCNS(=O)(=O)/C=C/c1ccccc1`?
KCNQ2 pot: 0.99; KCNQ2 pot baseline: 1.35

Results for Cc1oc2cc3oc(=O)cc(C)c3cc2c1C ?
KCNQ2 pot: 0.72; KCNQ2 pot baseline: 1.65

How did COCc1cc(C)nc(SCC(=O)Oc2ccccc2)c1C#N do in these assays?
KCNQ2 pot: 1.19; KCNQ2 pot baseline: -0.72

What do the screens show for `Cc1ccc(C2N(C)C(=O)c3ccccc3N2C)cc1` (centres undefined)?
KCNQ2 pot: 0.08; KCNQ2 pot baseline: 0.52

What do the screens show for `Cc1csc2c(N3CCCCC3)ncnc12`?
KCNQ2 pot: 1.08; KCNQ2 pot baseline: -0.25

Results for CC(C)N(Cc1ccccc1)C(=O)COC(=O)/C=C/c1cnc2ccccc2n1 ?
KCNQ2 pot: 0.38; KCNQ2 pot baseline: -0.22

Results for CC(C)OC(=O)c1nnn(-c2nonc2N)c1CSc1ccccn1 ?
KCNQ2 pot: 1.57; KCNQ2 pot baseline: -0.07

How did Cc1cccc(OCC(O)CN2CCNCC2)c1 (centres undefined) do in these assays?
KCNQ2 pot: 0.24; KCNQ2 pot baseline: -0.12

How did COc1ccc(Cn2c(C)nnc2-c2cnn(C)c2N)cc1 do in these assays?
KCNQ2 pot: 1.25; KCNQ2 pot baseline: 0.29

How did O=C(Cc1c(F)cccc1Cl)N1CCOCC1 do in these assays?
KCNQ2 pot: 1.38; KCNQ2 pot baseline: 0.89

How did CN1CCN(c2nc(-c3ccncc3)nc3ccccc23)CC1 do in these assays?
KCNQ2 pot: 0.77; KCNQ2 pot baseline: -1.87

What do the screens show for `Cc1cccc(NC(=O)COC(=O)Cc2cccc(C(F)(F)F)c2)c1C`?
KCNQ2 pot: 0.69; KCNQ2 pot baseline: 0.44

What do the screens show for `COc1cccc(OCC(=O)NNC(=O)C(=O)Nc2cccc(C)c2)c1`?
KCNQ2 pot: 0.5; KCNQ2 pot baseline: -0.17

How did Oc1c(Br)cc(Br)cc1C=Nc1ccc2c(c1)OCO2 do in these assays?
KCNQ2 pot: 9.84*; KCNQ2 pot baseline: 0.76*

Results for O=C(NCc1ccco1)c1cccnc1Cl ?
KCNQ2 pot: 1.33; KCNQ2 pot baseline: 0.2

What do the screens show for `COc1ccc2[nH]c(=O)c(CN(C(=O)c3cccnc3)c3ccccc3)cc2c1`?
KCNQ2 pot: 0.53; KCNQ2 pot baseline: 0.52

What do the screens show for `COc1ccc(C(=O)Nc2ccc(S(=O)(=O)Nc3nccnc3OC)cc2)cc1`?
KCNQ2 pot: 0.74; KCNQ2 pot baseline: 1

Results for COC(=O)c1ccc(N=C2SCC(=O)N2C)cc1 ?
KCNQ2 pot: 1.48; KCNQ2 pot baseline: 0.17

What do the screens show for `CC1CCN(C(=O)CNS(=O)(=O)c2ccc(Br)s2)CC1`?
KCNQ2 pot: 0.68; KCNQ2 pot baseline: 0.29

How did O=C(N/N=C/c1ccc[nH]1)c1cccc(Br)c1 do in these assays?
KCNQ2 pot: 1.17; KCNQ2 pot baseline: -0.02

3 compounds already listed, ordered by molecular weight, highest first:
What do the screens show for `COc1cccc(OCC(=O)NNC(=O)C(=O)Nc2cccc(C)c2)c1`?
KCNQ2 pot: 0.5; KCNQ2 pot baseline: -0.17

How did O=C(Cc1c(F)cccc1Cl)N1CCOCC1 do in these assays?
KCNQ2 pot: 1.38; KCNQ2 pot baseline: 0.89

Results for O=C(NCc1ccco1)c1cccnc1Cl ?
KCNQ2 pot: 1.33; KCNQ2 pot baseline: 0.2

(more compounds)
Results for O=C(CSc1nnc2n(C3CCCCC3)c(=O)c3ccccc3n12)OC1CCCCC1 ?
KCNQ2 pot: 0.37; KCNQ2 pot baseline: 0.7

Results for O=C(NNC(=O)C1CCC1)c1ccc(Br)cc1 ?
KCNQ2 pot: 1.32; KCNQ2 pot baseline: 0.04

Results for COc1ccccc1NC(=S)N(CCN1CCOCC1)Cc1ccccc1F ?
KCNQ2 pot: 1.76; KCNQ2 pot baseline: 1.49

What do the screens show for `Cc1ccccc1-c1nnn(Cc2ccc(-c3nn[nH]n3)cc2)n1`?
KCNQ2 pot: 1.61; KCNQ2 pot baseline: -0.02

Results for Cc1ccc2[nH]c3c(c2c1)CN(C(C)C)CC3 ?
KCNQ2 pot: 0.13; KCNQ2 pot baseline: 0.07

What do the screens show for `NS(=O)(=O)c1ccc(CNC(=O)CSc2nc3ccc(Cl)cc3[nH]2)cc1`?
KCNQ2 pot: 0.37; KCNQ2 pot baseline: -1.02

How did CCCn1c(O)c(N=N)c2ccccc21 do in these assays?
KCNQ2 pot: 0.38; KCNQ2 pot baseline: 0.26

Results for Cc1cccc(N2CCN(C(=O)c3ccc(N4CCCC4=O)cc3)CC2)c1C ?
KCNQ2 pot: 1.38; KCNQ2 pot baseline: 1.62

Results for CC(Oc1ccc2c3c(c(=O)oc2c1)CCC3)C(=O)NCc1ccccn1 (centres undefined) ?
KCNQ2 pot: 2.04; KCNQ2 pot baseline: 0

How did O=C(Nc1nnc(SCc2ccccc2F)s1)c1ccco1 do in these assays?
KCNQ2 pot: 0.02; KCNQ2 pot baseline: -0.03

What do the screens show for `CCc1cc2c3c(c1)/C(=C1/SC(N)=NC1=O)C(=O)N3C(C)(C)C=C2C`?
KCNQ2 pot: 1.13; KCNQ2 pot baseline: -1.13

What do the screens show for `COc1cccc(NC(=S)NNC(=O)Cn2nc(C(F)(F)F)cc2C)c1`?
KCNQ2 pot: 0.22; KCNQ2 pot baseline: -0.39

Results for OC(CNCCCN1CCCCC1)COc1ccccc1 (centres undefined) ?
KCNQ2 pot: 0.14; KCNQ2 pot baseline: 0.43

What do the screens show for `CC1=NN(c2cccc(C(=O)O)c2)C(=O)/C1=C\C=C\c1ccco1`?
KCNQ2 pot: 2.15; KCNQ2 pot baseline: 0.13

What do the screens show for `CCCN1Cc2cccc(C(=O)NC3CCCC3)c2C1=O`?
KCNQ2 pot: 1.4; KCNQ2 pot baseline: 0.3

Results for CCOC(=O)Cn1c(N2CCCCCC2)nc2c1c(=O)[nH]c(=O)n2C ?
KCNQ2 pot: 0.88; KCNQ2 pot baseline: -0.46

How did O=C(CN1C(=O)CCS(=O)(=O)c2ccccc21)NCc1ccc2c(c1)OCO2 do in these assays?
KCNQ2 pot: 1.4; KCNQ2 pot baseline: -0.21

How did Cc1c(CCC(=O)NCCCn2ccnc2)c(=O)oc2cc3occ(C(C)(C)C)c3cc12 do in these assays?
KCNQ2 pot: 0.38; KCNQ2 pot baseline: 2.79

Results for COC(=O)c1cc(NC(=O)c2cccnc2)cc(C(=O)OC)c1 ?
KCNQ2 pot: 0.44; KCNQ2 pot baseline: -0.11

Some of the compounds tested. The share of hits here may be higher or lower than overall.
